# Screening results from PubChem BioAssay.
# YB-1 expr inh: YB-1 expression inhibition; AID 434959; 0.37% of 30,000 active; delta delta Cp (YB-1 minus CDIP) (no concentration beside the values); U2OS, qRT-PCR YB-1 vs CDIP delta delta Cp, 16 h; stronger effect = higher value; zero = DMSO, each unit about twofold;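 active = delta delta Cp rounded down to an integer at or above 3, about 3 SD of DMSO wells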;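 also: higher means less YB-1 transcript or more CDIP transcript relative to DMSO; stock transfer was 100 nL into about 100 µL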
# MITF inhib: inhibitors of MITF. 0.28% of 37,000 active. TRPM1 promoter luciferase, luminescence, 24 h. inhibition, % (no concentration beside the values);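 active = most replicates at 85% or more, or half of them and the mean; inconclusive = half reach 85% but not the mean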;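 also: human melanocyte line stably carrying TRPM1 promoter luciferase reporter; 0% = vehicle wells and 100% = a positive control; the first replicate is given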
# PD-1 reversal: reversal of PD-1 mediated T-cell inhibition; primary human CD4 T cells, PD-L1 beads, CellTiter-Glo 96 h; 29,000 tested, under 10 active; activation, % (concentration not given with the values);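 active = replicate mean of 50% or more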;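 also: 0% = median vehicle wells and 100% = positive control; 100 nL library stock added to about 50 µL; numbers are from one replicate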
# Hedgehog inh: blocks Sonic Hedgehog signaling | Shh-LIGHT2 Gli-luciferase reporter, 30 h | inhibition, % (concentration not given with the values) | 2.1% of 22,000 active | AID 2313;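 active = replicate mean of 65% or more; inconclusive = mean lower but half the replicates past it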;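 also: pathway switched on by Shh-conditioned medium diluted 1 in 25 in low serum; 100 nL library stock added to about 40 µL; 0% = median of neutral wells and 100% = positive control level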
# Numbers without * were called inactive; ? = inconclusive; . = not tested or not shown. Not all compounds are listed; count on the stated rates, not on these rows.
SMILES,YB-1 expr inh,MITF inhib,PD-1 reversal,Hedgehog inh
COc1ccc(CN(C)C[C@@H]2Oc3c(NC(=O)Nc4ccccc4)cccc3C(=O)N([C@H](C)CO)C[C@H]2C)cc1,-0.41,15,.,30
O=C(O)C1CC1C(=O)Nc1ccc(Oc2ccc(Cl)cc2C2CCCCC2)nc1 (stereo not given),0.64,-14,-2.4,50
C[C@H]1CN([C@@H](C)CO)C(=O)c2cccc(NC(=O)c3ccncc3)c2O[C@H]1CN(C)Cc1ccc(C(=O)Nc2ccccc2N)cc1,-0.71,-22,-2.6,.
C[C@H](CO)N1C[C@H](C)[C@@H](CN(C)CC2CC2)Oc2c(NS(=O)(=O)c3ccc(F)cc3)cccc2C1=O,0.17,3,1.0,-4
COc1cccc(C2CC(C(F)(F)F)n3ncc(C(=O)O)c3N2)c1 (stereo not given),-0.09,-19,-0.3,-11
C[C@H](CO)N1C[C@H](C)[C@H](CN(C)C)Oc2c(NC(=O)c3ccncc3)cccc2C1=O,3.6*,0,2.4,17
COC(=O)c1ccc(NC(=O)CN(c2cc(Cl)c(Cl)cc2Cl)S(C)(=O)=O)cc1,.,6,-1.7,.
NC(=O)C1(N2CCCCC2)CCN(CC(=O)Nc2cc(Cl)ccc2Cl)CC1,.,0,-1.2,.
C[C@@H]1CCCCO[C@@H](CN(C)C(=O)Cc2ccccc2)[C@@H](C)CN([C@H](C)CO)C(=O)c2cc(NC(=O)Nc3ccccc3)ccc2O1,-0.017,-7,0.4,4
C[C@@H]1CN([C@H](C)CO)C(=O)c2cc(NC(=O)Cc3ccccc3)ccc2O[C@@H]1CN(C)C(=O)Nc1cccc2ccccc12,-0.61,-13,-0.5,-9
CC(C)NC(=O)N(C)C[C@@H]1Oc2c(NS(=O)(=O)c3ccc(F)cc3)cccc2C(=O)N([C@@H](C)CO)C[C@H]1C,-0.17,-18,.,1
N#CCSc1nc2cc(C(=O)NCc3ccccc3)ccc2c(=O)n1CCc1ccccc1,-0.058,0,1.2,-21

# Sorted by molar mass (low to high): part of the list above
SMILES,YB-1 expr inh,MITF inhib,PD-1 reversal,Hedgehog inh
COc1cccc(C2CC(C(F)(F)F)n3ncc(C(=O)O)c3N2)c1 (stereo not given),-0.09,-19,-0.3,-11
O=C(O)C1CC1C(=O)Nc1ccc(Oc2ccc(Cl)cc2C2CCCCC2)nc1 (stereo not given),0.64,-14,-2.4,50
N#CCSc1nc2cc(C(=O)NCc3ccccc3)ccc2c(=O)n1CCc1ccccc1,-0.058,0,1.2,-21
COc1ccc(CN(C)C[C@@H]2Oc3c(NC(=O)Nc4ccccc4)cccc3C(=O)N([C@H](C)CO)C[C@H]2C)cc1,-0.41,15,.,30
CC(C)NC(=O)N(C)C[C@@H]1Oc2c(NS(=O)(=O)c3ccc(F)cc3)cccc2C(=O)N([C@@H](C)CO)C[C@H]1C,-0.17,-18,.,1
C[C@H]1CN([C@@H](C)CO)C(=O)c2cccc(NC(=O)c3ccncc3)c2O[C@H]1CN(C)Cc1ccc(C(=O)Nc2ccccc2N)cc1,-0.71,-22,-2.6,.

# The list goes on.
SMILES,YB-1 expr inh,MITF inhib,PD-1 reversal,Hedgehog inh
C[C@@H]1CN([C@@H](C)CO)C(=O)c2cc(NC(=O)Nc3cccc4ccccc34)ccc2O[C@H]1CN(C)C(=O)Nc1ccc(F)cc1,0.16,-4,0.5,-19
O=C(CSc1n[nH]c(-c2ccco2)n1)c1ccc(Cl)cc1,.,-3,2.0,.
C[C@@H]1CCCCO[C@H](CN(C)S(=O)(=O)c2cn(C)cn2)[C@@H](C)CN([C@H](C)CO)C(=O)c2cc(N(C)C)ccc2O1,0.088,-8,0.8,41
S=c1cc[nH]c(=S)n1-c1nc(-c2ccccc2)sc1-c1ccccc1,0.38,1,-1.9,-13
Cc1noc(C)c1S(=O)(=O)Nc1cccc2c1O[C@@H](CN(C)Cc1ccc(C(=O)Nc3ccccc3N)cc1)[C@@H](C)CN([C@@H](C)CO)C2=O,-0.54,11,1.0,.
COc1ccc(NC(=O)COc2ccc(C)c(C)c2)cc1NC(=O)c1ccco1,.,-5,3.6,.
C[C@H]1CN([C@@H](C)CO)C(=O)c2cc(NC(=O)C3CC3)ccc2O[C@H]1CN(C)Cc1ccc(C(=O)O)cc1,0.21,1,-1.1,-39
Cc1ccc(NC(=O)CC(C(=O)O)N(C)C)cc1 (stereo not given),.,-6,0.2,.
C[C@@H]1CN([C@H](C)CO)C(=O)c2cc(NC(=O)Nc3ccc4c(c3)OCO4)ccc2O[C@H]1CN(C)Cc1ccc(C(F)(F)F)cc1,-0.32,7,-0.7,.
Oc1ccc2c(c1)OCC1c3cc4c(cc3OC21)OCO4 (stereo not given),0.27,-43,.,-39
Cc1ccc(C)c(OCC(=O)Nc2cccc(-c3nc4ccccc4o3)c2)c1,.,-59,-1.7,.
C[C@H]1CN([C@@H](C)CO)C(=O)Cc2cc(NS(=O)(=O)c3ccc(Cl)cc3)ccc2O[C@H]1CN(C)C(=O)NC1CCCCC1,-0.14,-7,.,-4
COc1ccc(S(=O)(=O)Nc2ccc3c(c2)CC(=O)N([C@@H](C)CO)C[C@@H](C)[C@@H](CN(C)C(=O)NC2CCCCC2)O3)cc1,0.26,-16,-3.4,23
C[C@@H]1CCCCO[C@@H](CN(C)C(=O)CCCN(C)C)[C@@H](C)CN([C@H](C)CO)C(=O)c2cc(NC(=O)C3CCCCC3)ccc2O1,-0.076,-5,0.3,.
CNC[C@@H]1Oc2c(N)cccc2C(=O)N([C@H](C)CO)C[C@@H]1C,-0.4,-4,2.6,3
C[C@@H]1CCCCO[C@@H](CN(C)C(=O)Nc2ccc3c(c2)OCO3)[C@@H](C)CN([C@H](C)CO)C(=O)c2cc(NC(=O)CCCCCC(=O)Nc3ccccc3N)ccc2O1,-0.29,8,1.7,.
C[C@H](CO)N1C[C@H](C)[C@@H](CN(C)S(=O)(=O)c2cccs2)Oc2ccc(NS(=O)(=O)c3ccc(Cl)cc3)cc2C1=O,0.44,-9,-2.3,.
C[C@H](CO)N1C[C@H](C)[C@@H](CN(C)C(=O)Nc2cccc3ccccc23)Oc2ccc(NC(=O)Nc3ccc(F)cc3)cc2C1=O,0.08,3,.,-26
C[C@H]1CN([C@@H](C)CO)C(=O)Cc2cc(N(C)C)ccc2O[C@H]1CN(C)S(=O)(=O)c1cccs1,-0.0089,-5,-0.2,?
C[C@H](CO)N1C[C@H](C)[C@@H](CN(C)C(=O)Nc2ccccc2)Oc2ccc(NC(=O)Cc3cn(C)c4ccccc34)cc2C1=O,-0.045,23,-3.9,-50
C[C@@H]1CN([C@@H](C)CO)C(=O)c2cc(NC(=O)CCCN(C)C)ccc2O[C@@H]1CN(C)Cc1ccc(-c2ccccc2)cc1,-0.36,-9,0.2,-2
C[C@H](CO)N1C[C@H](C)[C@H](CN(C)Cc2ccc(Cl)c(Cl)c2)Oc2ccc(NC(=O)Nc3ccccc3)cc2CC1=O,0.22,29,-1.3,32
Cc1ccc(-c2nc3ccccc3o2)cc1NC(=O)COc1ccccc1[N+](=O)[O-],.,11,1.4,.
C[C@@H]1CN([C@@H](C)CO)C(=O)c2cccc(NC(=O)c3cnccn3)c2O[C@@H]1CN(C)Cc1ccc(-c2ccccc2)cc1,0.73,-15,-3.1,-30
C[C@@H]1CN([C@H](C)CO)C(=O)c2cc(NC(=O)CCCN(C)C)ccc2O[C@@H]1CN(C)Cc1ccc(Oc2ccccc2)cc1,-0.06,0,-0.8,22
COc1ccc(S(=O)(=O)N(C)C[C@@H]2Oc3ccc(NS(=O)(=O)c4ccc(Cl)cc4)cc3CC(=O)N([C@@H](C)CO)C[C@@H]2C)cc1,0.061,6,0.6,-11
O=C(C1Sc2nnc(-c3ccccc3)n2NC1c1ccccc1)N1CCCC1 (stereo not given),0.15,-12,1.2,24
Cc1noc(C)c1S(=O)(=O)Nc1ccc2c(c1)C(=O)N([C@@H](C)CO)C[C@@H](C)[C@H](CN(C)S(=O)(=O)c1cn(C)cn1)O2,-0.15,3,0.0,-37
C[C@H]1CN([C@@H](C)CO)C(=O)Cc2cc(NC(=O)Nc3cccc4ccccc34)ccc2O[C@H]1CN(C)Cc1ccc(-c2ccccc2)cc1,0.14,-6,-1.5,-55
C[C@@H]1CN([C@H](C)CO)C(=O)Cc2cc(NC(=O)CCC(F)(F)F)ccc2O[C@H]1CN(C)C(=O)Nc1ccc2c(c1)OCO2,-0.3,4,.,-10
C[C@H](CO)N1C[C@H](C)[C@H](CN(C)S(C)(=O)=O)Oc2ccc(NC(=O)CCC(F)(F)F)cc2C1=O,-0.37,-13,2.9,.
C[C@H]1CN([C@@H](C)CO)C(=O)c2cc(NC(=O)Nc3ccc(C(F)(F)F)cc3)ccc2O[C@H]1CN(C)Cc1ccc(C(=O)Nc2ccccc2N)cc1,0.0058,-6,0.8,.
O=C(COc1ccccc1[N+](=O)[O-])Nc1ccc2oc(-c3ccc(F)cc3Cl)nc2c1,.,-95,-0.1,.
C[C@H]1CN([C@@H](C)CO)C(=O)c2cccc(NC(=O)c3nc4ccccc4s3)c2O[C@H]1CN(C)S(=O)(=O)c1cn(C)cn1,0.5,-23,.,15
C[C@@H]1CN([C@@H](C)CO)C(=O)c2cc(NS(C)(=O)=O)ccc2O[C@@H]1CN(C)Cc1ccccc1,-0.0031,5,0.8,-5
C[C@@H]1CN([C@H](C)CO)C(=O)c2cccc(NS(C)(=O)=O)c2O[C@H]1CN(C)Cc1ccc(Cl)c(Cl)c1,-0.14,-20,2.2,-3
COc1ccc(-c2cc(=O)c3c(OC)cc(OC)cc3o2)cc1,-0.11,-58,.,-53
CS(=O)(=O)N(CC(=O)Nc1ccc(Cl)c(Cl)c1)c1ccc(I)cc1,.,-10,-1.9,.
C[C@H]1CN([C@@H](C)CO)C(=O)c2cc(NS(=O)(=O)c3ccc(F)cc3)ccc2O[C@H]1CN(C)C(=O)Nc1ccc2c(c1)OCO2,-0.38,9,2.4,.
C[C@@H]1CCCCO[C@H](CN(C)C(=O)c2ccccc2)[C@@H](C)CN([C@H](C)CO)C(=O)c2cc(NC(=O)Nc3ccc4c(c3)OCO4)ccc2O1,0.061,-8,.,-5
Cc1cc(C(=O)Nc2cccc3c2O[C@@H](CN(C)Cc2ccc4c(c2)OCO4)[C@@H](C)CN([C@@H](C)CO)C3=O)n(C)n1,0.036,-20,-1.1,-1
CS(=O)(=O)N(CC(=O)N1CCOCC1)c1ccc2c3c(cccc13)CC2,.,5,0.9,.
C[C@@H]1CN([C@H](C)CO)C(=O)Cc2cc(NS(=O)(=O)c3ccc(F)cc3)ccc2O[C@@H]1CN(C)C(=O)Nc1ccccc1,-0.13,-11,-0.1,-9
CCCCn1c(Br)nc2c1c(=O)[nH]c(=O)n2C,0.13,-5,-0.4,6
O=C(O)CCc1ccc(-c2ccc(F)cc2)n1-c1ccc(C(=O)O)cc1,.,-11,0.1,.
C[C@@H]1CN([C@H](C)CO)C(=O)Cc2cc(NS(=O)(=O)c3ccc(F)cc3)ccc2O[C@H]1CN(C)Cc1ccc(-c2ccccc2)cc1,0.65,12,-3.1,-18
CCOc1ccc(NS(=O)(=O)c2cc(C(=O)O)ccc2OC)cc1,.,-21,3.8,.
CCOc1ccc(C2(CC(=O)Nc3ccccc3)C(=O)c3ccccc3C2=O)cc1OC,0.36,6,-0.8,-28
NC(=O)CSc1nc2ccccc2s1,-0.48,-5,-0.2,.
Cn1c(=O)c2c(nc(NCc3cccnc3)n2Cc2cccc(C(F)(F)F)c2)n(C)c1=O,.,-18,1.0,.
C[C@H](CO)N1C[C@H](C)[C@@H](CN(C)CC2CCCCC2)Oc2ccc(NC(=O)Nc3ccc(C(F)(F)F)cc3)cc2C1=O,-0.34,2,-0.9,52
Cc1ccc(N(CC(=O)Nc2ccccc2-c2ccccc2)S(C)(=O)=O)cc1,.,-11,-1.7,.
C[C@@H]1CN([C@H](C)CO)C(=O)c2cc(N(C)C)ccc2O[C@@H]1CN(C)C(=O)Nc1ccc2c(c1)OCO2,-0.023,-1,.,-22
COc1ccc(S(=O)(=O)Nc2ccc3c(c2)CC(=O)N([C@@H](C)CO)C[C@H](C)[C@@H](CN(C)Cc2ccc(-c4ccccc4)cc2)O3)cc1,0.022,43,.,17
CC(C)NC(=O)Nc1cccc2c1O[C@@H](CN(C)C(=O)NC(C)C)[C@@H](C)CN([C@@H](C)CO)C2=O,0.22,5,0.6,-12
COc1cc(NC(=S)NCCN2CCOCC2)c(OC)cc1Cl,.,17,3.5,.
C[C@H]1CN([C@@H](C)CO)C(=O)c2cccc(NC(=O)Nc3ccccc3)c2O[C@H]1CN(C)C(=O)Nc1ccc(C(F)(F)F)cc1,-0.32,24,-3.7,1
C[C@@H]1CCCCO[C@H](CN(C)S(=O)(=O)c2ccc(F)cc2)[C@@H](C)CN([C@H](C)CO)C(=O)c2cc(NS(=O)(=O)c3cccs3)ccc2O1,-0.13,8,-1.6,?
C[C@@H]1CN([C@@H](C)CO)C(=O)c2cccc(NC(=O)c3ccc(-c4nccs4)cc3)c2O[C@H]1CN(C)C(=O)Nc1ccc2c(c1)OCO2,0.43,-5,.,1
